KCNQ2 block – KCNQ2 potassium channel inhibitors, primary screen, cell-based, CHO-K1, FluxOR thallium flux, B-score (AID 2156); O88943; 20 min; active compounds read low; only compounds with negative scores are shown here; some inactives read as strong as hits; B-score at 10 µM; hit rate 1.1% among 310,000;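 active = fluorescence ratio B-score at most minus 3 library SDs, with starting brightness B-score within 2 library SDs, cut at about -5.5 in these data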
Target sequence (O88943 whole entry, looked up): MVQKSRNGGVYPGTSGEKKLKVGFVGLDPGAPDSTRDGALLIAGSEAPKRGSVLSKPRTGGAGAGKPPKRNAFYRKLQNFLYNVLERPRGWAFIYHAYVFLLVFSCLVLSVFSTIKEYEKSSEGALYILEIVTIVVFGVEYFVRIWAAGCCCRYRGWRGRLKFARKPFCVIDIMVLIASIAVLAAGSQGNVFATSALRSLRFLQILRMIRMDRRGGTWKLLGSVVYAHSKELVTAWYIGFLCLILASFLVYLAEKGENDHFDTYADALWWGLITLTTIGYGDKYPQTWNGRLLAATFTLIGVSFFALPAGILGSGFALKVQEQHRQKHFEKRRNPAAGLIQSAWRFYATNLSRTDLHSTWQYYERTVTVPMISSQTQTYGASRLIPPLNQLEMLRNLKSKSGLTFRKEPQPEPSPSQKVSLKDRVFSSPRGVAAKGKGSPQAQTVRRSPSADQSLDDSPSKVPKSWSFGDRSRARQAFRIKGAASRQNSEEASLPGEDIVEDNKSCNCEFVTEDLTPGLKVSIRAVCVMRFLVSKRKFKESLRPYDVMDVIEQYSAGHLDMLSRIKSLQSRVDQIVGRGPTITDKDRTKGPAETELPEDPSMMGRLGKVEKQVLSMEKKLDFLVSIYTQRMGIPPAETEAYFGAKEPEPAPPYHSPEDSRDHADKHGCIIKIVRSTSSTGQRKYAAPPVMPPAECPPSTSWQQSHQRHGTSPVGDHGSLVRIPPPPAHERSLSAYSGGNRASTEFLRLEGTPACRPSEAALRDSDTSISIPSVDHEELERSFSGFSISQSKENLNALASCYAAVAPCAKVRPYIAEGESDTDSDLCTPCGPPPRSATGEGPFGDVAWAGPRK
KCNQ2 block baseline – second read-out of KCNQ2 block, no call of its own (marks repeat the call); B-score; measured here: initial fluorescence intensity artifact check;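 brightness before thallium and not channel activity; 0 = typical well and far values either way flag optical interference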
* marks the source's active call; other numbers are inactive results; i = inactive. The list is partial; rates above refer to the full screens.

canonical_smiles	KCNQ2 block baseline	KCNQ2 block
CC(=O)c1c(C)[nH]c(C(=O)NCC2CCCCC2)c1C	1.32	i
CC1=CC=CC2=NC(=O)CC(C)(C(=O)N(CC(=O)NC3CCCC3)c3ccc(F)cc3)N12 (configuration not stated)	-0.79	i
CCOC(=O)CNC(=S)SC	-1.94	i
COc1ccc(Nc2ncc(C(=O)N3CCC(C(N)=O)CC3)c3ccccc23)cc1	-0.52	i
CC(C)C[C@@H](CN=[N+]=[N-])N1CCN(Cc2ccccc2)CCC1=O	0.67	i
CCOC(=O)c1c(-c2ccc(OC)cc2)oc2ccc(O)cc12	1.43	i
COc1cc(C2SCC(=O)N2Cc2ccccc2)ccc1O (configuration not stated)	2.31	i
NC(=O)c1ccccc1NS(=O)(=O)Cc1ccccc1	0.39	i
O=C(COC(=O)C12CC3CC(CC(O)(C3)C1)C2)NC(=O)NCc1ccco1	0.58	i
CCc1c(C)nc2[nH]nc(-c3ccccc3)n2c1=O	-0.13	i
Cc1c(S(=O)(=O)NCCc2ccccc2)c(=O)n(C)c(=O)n1C	0.83	i
COc1ccccc1NC(=O)CN1CCN(CC(=O)Nc2ccc(C)c(F)c2)CC1	0.63	i
O=C(c1cc(COc2ccc(F)cc2Cl)on1)N1CC[C@@H]2CCCC[C@H]2C1	1.63	i
CCOC(=O)c1cc(-c2ccccc2)sc1NC(=O)C(C)N1C(=O)c2ccccc2C1=O (configuration not stated)	0.58	i
CC(C)(C)c1cc[n+](-c2[nH]c(=O)sc2/C=N/NC(=O)c2ccccc2[O-])cc1	3.29	i
CC(C)Oc1cccc(C(=O)C2CCCN(C(=O)c3ccc4c(c3)OCO4)C2)c1 (configuration not stated)	0.01	i
COc1cccc(NC(=O)CN(C)C(=O)c2cc(-c3ccccc3)nc3ccccc23)c1	1.24	i
CC(C)CCN1CCN(Cc2cnc(N3CCCC3)s2)CC1CCO (configuration not stated)	-1.68	i
CCOC(=O)CNC(=O)CSc1nnc(NC(=O)c2ccc(C)cc2)s1	-0.78	i
O=c1c2ccccc2ncn1CCCCOc1ccc(Br)cc1	-0.86	i
Cc1ccc(S(=O)(=O)NC(C)(C)C)cc1C(=O)OC(C)C(=O)NC1CC1 (configuration not stated)	2.91	i
O=C(NCc1ccco1)c1ccccc1NS(=O)(=O)c1ccc(Br)s1	1.46	i
O=S(=O)(N/N=C/c1ccc2c(c1)OCO2)c1ccc(Br)cc1	-0.96	i
CSc1nccc(NC(=O)c2ccc(C(C)(C)C)cc2)n1	0.73	i
COc1ccccc1CNC(=O)c1cn(C)c2ccc(S(=O)(=O)N3CCCC3)cc2c1=O	1.59	i
CC1CN(C(=S)Nc2ccccc2C(F)(F)F)CC(C)O1 (configuration not stated)	1.13	i
Cc1ccc(C2=[N+]([O-])C3(CCCCC/C3=N\O)N(O)C2(C)C)o1 (configuration not stated)	0.06	i
CCOC(=O)NC(=O)CSc1nnc(C2CC2)n1Cc1ccco1	0.36	i
COc1ccc(C(=O)NCCc2nnc3ccc(SCC(=O)NCc4ccccc4)nn23)cc1	0.45	i
COCCN(C(=S)Nc1cccc(OC)c1)C1CCN(C(C)=O)CC1	-0.02	i
Cn1c(=O)c(-c2ccccc2[N+](=O)[O-])c(Cl)c2ccccc21	0.53	i
O=C(C1CCC(=O)N1Cc1ccccc1Cl)N1CCN(c2cccc(Cl)c2)CC1 (configuration not stated)	-0.38	i
COc1cccc(CC2(CO)CCCN(Cc3cn[nH]c3-c3ccccc3)C2)c1 (configuration not stated)	0.92	i
CC(C(=O)NCc1ccccc1)N1C(=O)CN(C)C(=O)c2ccccc21 (configuration not stated)	0.01	i
COc1cc(C)c(Br)cc1S(=O)(=O)NCCN1CCOCC1	0.79	i
Cc1c([C@@H]2C[C@H]3CN(Cc4cccc(Cl)c4)C(=O)[C@]34CCCN24)cnn1C	0.02	i
COc1ccc(NC(=O)c2ccc(=O)[nH]c2)cc1S(=O)(=O)N1CCCCC1	-2.79	i
CCOc1ccc(C(=O)CC(Sc2ccc(C)cc2)C(=O)O)cc1 (configuration not stated)	-0.69	i
COc1ccc(C(=O)N2CCCC(N3CCN(c4ccccc4F)CC3)C2)c(OC)n1 (configuration not stated)	-0.08	i
C=CCn1c(C)csc1=Nc1ccc(C(=O)O)cc1	1.18	i
CCN(CC)CCN1C(=O)C(=O)/C(=C(/O)c2c(C)[nH]c(C(=O)OC)c2C)C1c1cccc(OC)c1 (configuration not stated)	-0.09	i
CCS(=O)(=O)N1Cc2ccccc2CC1C(=O)NCC12CC3CC(CC(C3)C1)C2 (configuration not stated)	-0.24*	-7.07*
CCOc1cc(N2CCOCC2)c(OCC)cc1NC(=O)COc1ncnc2ccc(Br)cc12	1.8	i
O=C1OC2(CCCCC2)OC(=O)C1=CNc1nccs1	1.93	i
Cc1nc(NC(=O)/C=C/c2ccccc2)sc1C(=O)Nc1ccccc1Cl	-0.25	i
CC(=O)N1CCN(c2ccc(NC(=O)C(c3ccccc3)c3ccccc3)cc2)CC1	-0.6	i
Cc1cccc2cc(CN(Cc3nnnn3C3CCCCC3)C3CCCC3)c3nnnn3c12	0.46	i
COc1cc(/C=N/Nc2nn3cnnc3c3ccccc23)ccc1O	2.23	i
O=C(NCCC(=O)N1CCCC(C(F)(F)F)C1)c1ccc(Br)cc1 (configuration not stated)	-1.11	i
O=C1CC(NCCC2=CCCCC2)C(=O)N1c1cccc(Cl)c1Cl (configuration not stated)	-0.95	i

(cont.)
canonical_smiles	KCNQ2 block baseline	KCNQ2 block
O=[N+]([O-])/C=C/c1cn(Cc2ccccc2)c2ccccc12	0.33	i
Cc1nnc(SCC(=O)c2ccc(Br)cc2)s1	-2.52	i
Cc1ccc(S(=O)(=O)c2cnc3cc(C)nn3c2N)cc1	-1.22	i
CCOc1ccc(CNC(=O)CCCn2nc(C)c3c(C)n(-c4ccc(C)cc4)nc3c2=O)cc1	-0.46	i
COCCn1c(=O)c2ccccc2c2ccccc2c1=O	0.25	i
COc1ccc(CCNC(=O)c2cc(C(=O)c3cc(C)ccc3O)cn(CCc3ccc(OC)cc3)c2=O)cc1	-3.64*	-7.27*
Cc1cc(C(=O)CSc2nnc3c(Cl)cc(Cl)cn23)c(C)n1C	0.03	i
CSc1nnc(-c2cnccn2)n1C	0.82	i
CCOc1ccccc1C(=O)NC1CC2CCCC(C1)N2C1CC1 (configuration not stated)	-0.92	i
COc1ccc(NC(=O)c2cccc(Cl)c2)c[n+]1[O-]	-0.15	i
Cc1c(S(=O)(=O)N2CCCC(C(=O)O)C2)cnn1C (configuration not stated)	-0.45	i
O=C(C1=C(O)C(=O)N(CCN2CCOCC2)C1c1ccc(F)cc1)c1cccs1 (configuration not stated)	0.94	i
CC1CCCCC1NC(=O)CCNS(=O)(=O)c1ccc2c(c1)CCC(=O)N2 (configuration not stated)	-3.09	i
COC(=O)COc1ccc(C2NC(=O)NC(c3ccccc3)=C2C(C)=O)cc1Br (configuration not stated)	-1.26	i
COc1ccc(NC(=S)NCCNC(C)=O)cc1	0.69	i
C=CCc1c(C)nc2ccc(C(=O)OCC)cc2c1Cl	1.27	i
O=C(Nc1ccc(S(=O)(=O)Nc2nccs2)cc1)c1cc(-c2ccccc2)nc2ccccc12	-1.03	i
CN(C)S(=O)(=O)c1cccc(NC(=S)Nc2cccc3cnccc23)c1	1.27	i
O=C(NCc1cccnc1)c1ccccc1NS(=O)(=O)c1ccccc1	-0.5	i
COc1ccc(OC)c(/C=C/c2nc3ccccc3[nH]c2=O)c1	1.67	i
COc1ccc2cc(S(=O)(=O)Nc3ccccn3)ccc2c1	0.07	i
CCC(=O)Nc1ccc(C(=O)CSc2nnc(-c3ccc(NS(=O)(=O)CC)cc3)o2)cc1OC	1.79	i
Cc1ccc(CN2CCc3c(OCc4ccc(F)cc4)cccc3C2=O)cc1	0.87	i
CCCC(=O)OC1CCS(=O)(=O)c2sccc21 (configuration not stated)	1.12	i
CCn1c(CCNC(=O)c2ccc(Cl)cc2)nnc1SCC(=O)NC1CCCC1	0.13	i
Cc1ccc(S(=O)(=O)N/N=C\c2ccc(Cl)c([N+](=O)[O-])c2)cc1	-0.33	i
Cc1c(NS(=O)(=O)c2ccc(S(=O)(=O)c3ccccc3)s2)c(=O)n(-c2ccccc2)n1C	0.05	i
O=C(COc1ccc(Cl)cc1)N(Cc1ccc(F)cc1)C1CCS(=O)(=O)C1 (configuration not stated)	-0.69	i
Oc1ccc(O)c(Cc2nc3ccccc3[nH]2)c1	-0.64	i
CCN(CC(=O)N1CCCC1)S(=O)(=O)c1ccc(Br)cc1	1.78	i
N#Cc1ccc(NC(=O)COC(=O)CCc2ccc(S(=O)(=O)N3CCCCC3)cc2)cc1	0.66	i
CCOC(=O)c1[nH]c(=O)[nH]c1CSc1nc(C)cc(C)n1	0.43	i
OC(COc1ccc(Br)cc1)CN1CCC(Cc2ccccc2)CC1 (configuration not stated)	0.83	i
O=C(O)c1cc(-c2ccccc2)n(-c2ccccc2C(=O)O)n1	0.94	i
COc1ccc(OC)c(NS(=O)(=O)c2ccc(SC)cc2)c1	0.45	i
Cc1ccc(-c2csc(NC(=O)C[n+]3cc(-c4ccc(C)cc4)n4c3CCC4)n2)cc1	2.32	i
CC(C)(C)n1nnnc1CN1C2CCC1CC(NC(=O)Nc1ccccc1)C2 (configuration not stated)	0.88	i
O=C(/C=C/c1cn(-c2ccccc2)nc1-c1cccnc1)c1ccco1	0.51	i
CC(C)Cn1nc(-c2ccccc2)c2ccccc2c1=O	-0.85	i
CC(C)Oc1ccc(C(CC(=O)NCc2ccco2)c2ccccc2)cc1 (configuration not stated)	-0.77	i
CCOc1ccc(S(=O)(=O)NCCC(=O)NCc2ccccn2)cc1	1.32	i
CCOC(=O)c1c(NC(=O)C2CCCO2)sc(C)c1C (configuration not stated)	-0.82	i
S=C(Nc1cccnc1)N1CCCCC1	0.33	i
C/C(=N\Nc1nc2ccccc2[nH]1)c1ccc2c(c1)OCO2	0.33	i
CN(C)/C=C/C(=C\C(=O)C(F)(F)F)Nc1ccc(C(F)(F)F)cc1	-2.12	i
O=C1CC(c2ccco2)CC(O)=C1C=Nc1cc(Cl)ccc1Cl (configuration not stated)	-0.24	i
COc1ccc(-c2nc3ncccc3o2)cc1NC(=O)c1ccco1	-0.17	i
COc1ccc(NS(=O)(=O)c2cc3c4c(c2)C(C)C(=O)N4CCC3)cc1 (configuration not stated)	-0.06	i
COc1ccc2[nH]cc(CCNC(=O)c3ccc([N+](=O)[O-])cc3)c2c1	0.58	i
COc1ccc(CN=C2NN=C(c3ccccc3)CS2)cc1	0.03	i

Single records (already shown). Screens in order: KCNQ2 block baseline	KCNQ2 block
CCCC(=O)OC1CCS(=O)(=O)c2sccc21 (configuration not stated) in the list: 1.12	i
COc1ccc(OC)c(/C=C/c2nc3ccccc3[nH]c2=O)c1 in the list: 1.67	i
CN(C)S(=O)(=O)c1cccc(NC(=S)Nc2cccc3cnccc23)c1 in the list: 1.27	i

More compounds follow.
canonical_smiles	KCNQ2 block baseline	KCNQ2 block
CC(C)OCCCN(C)C1CCN(S(=O)(=O)c2ccc(-c3cc(C(F)(F)F)no3)s2)CC1	0.29	i
COc1ccc(NC(=O)c2csc(C)c2)cc1OC	3.14	i
CCn1cc(Br)c(C(=O)Nc2cccc(SC)c2)n1	0.23	i
COc1ccc(CCNC(=O)COC(=O)/C=C/c2cccs2)cc1	-0.75	i
COc1ccc(CNC(=O)C2(CC3CC(c4ccccc4)=NO3)CCN(C(=O)C3(C)CC3)CC2)cc1 (configuration not stated)	0.63	i
O=C(c1ccco1)N1CCN(S(=O)(=O)c2ccc(Br)cc2)CC1	0.83	i
Cc1cccc(C(=O)Nc2ccc(CC(=O)O)cc2)c1	-1.39	i
Cc1ccc2nc(-c3ccc(NC(=O)CNC4CC4)cc3)sc2c1	-0.06	i
c1ccc(-c2ccccc2OCCCCn2ccnc2)cc1	3.38	i
COc1ccc(Oc2coc3cc(OC(=O)c4cccs4)ccc3c2=O)cc1	-1.17	i
COc1cc(-c2nc(-c3cccnc3)no2)cc(OC)c1OC	0.09	i
Cc1onc(-c2ccccc2Cl)c1C(=O)N1CCC(C)CC1	0.06	i
Cn1nc(C(F)(F)F)c(-c2ccccc2)c1NC(=O)CSCC(=O)O	1.06	i

Some values from above.
CCOC(=O)c1[nH]c(=O)[nH]c1CSc1nc(C)cc(C)n1 in KCNQ2 block baseline → 0.43
CCN(CC)CCN1C(=O)C(=O)/C(=C(/O)c2c(C)[nH]c(C(=O)OC)c2C)C1c1cccc(OC)c1 (configuration not stated) in KCNQ2 block baseline → -0.09

Fetched by structure from the list above (4):
canonical_smiles	KCNQ2 block baseline	KCNQ2 block
CCn1cc(Br)c(C(=O)Nc2cccc(SC)c2)n1	0.23	i
Cn1nc(C(F)(F)F)c(-c2ccccc2)c1NC(=O)CSCC(=O)O	1.06	i
COc1ccc(NC(=O)c2csc(C)c2)cc1OC	3.14	i
c1ccc(-c2ccccc2OCCCCn2ccnc2)cc1	3.38	i

High-throughput results from PubChem.
